VDR inh: vitamin D3 receptor (human) inhibition | P11473 | VDR-SRC2-3 peptide fluorescence polarization, 2 h | Potency, µM, without a hit: max response, negative = inhibition, most hits filed as inhibitors | 0.93% of 400,000 active; active means well fitted inhibition curve with a large enough effect; inconclusive means small, poorly fitted or top-dose-only effect, or another doubt; inactive means no such curve, though single readings can be large or run the other way; further: series mostly up to about 120 µM
Target sequence (P11473 whole entry, looked up): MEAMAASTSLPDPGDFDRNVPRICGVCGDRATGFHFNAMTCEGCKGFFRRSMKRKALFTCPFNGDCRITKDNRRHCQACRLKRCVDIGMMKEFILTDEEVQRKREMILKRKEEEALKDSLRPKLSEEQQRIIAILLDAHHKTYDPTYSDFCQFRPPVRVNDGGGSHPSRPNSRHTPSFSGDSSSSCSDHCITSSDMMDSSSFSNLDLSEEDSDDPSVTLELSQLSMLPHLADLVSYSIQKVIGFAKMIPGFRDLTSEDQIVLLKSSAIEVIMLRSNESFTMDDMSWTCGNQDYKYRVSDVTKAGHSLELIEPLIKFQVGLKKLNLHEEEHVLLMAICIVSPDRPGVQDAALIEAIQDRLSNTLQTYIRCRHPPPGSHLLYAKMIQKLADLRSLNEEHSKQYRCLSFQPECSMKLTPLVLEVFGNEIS
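Two reagent solutions held at 4 deg C in the dark were dispensed, compounds pinned at 23 nl, and the mixture incubated 2 h at room temperature. Read-out: fluorescence polarization of VDR–SRC2-3 peptide binding.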
An asterisk follows results filed as active; ? = inconclusive; & = joins results of further samples; [ ] = another dose, or the depositor's remark. On the % scale 0 is the no-effect control and ±100 the full control effect; potency means the concentration at half of the fitted maximal effect. Not all compounds are listed. The share of hits here may be higher or lower than overall.

VDR inh	Molecule
11%	O=C(NCc1ccccc1Cl)C1CCC(CNc2c(N3CCCCC3)c(=O)c2=O)CC1 (centres undefined)
3%	CCN(CC)C(=O)C(=O)Nc1ccc(OC)c(Cl)c1
6%	N#Cc1ccc(OCC(=O)N2CCc3ccccc32)cc1
-9%	COc1ccc(N2CCN(Cc3nnc(-c4cccc(Br)c4)o3)CC2)cc1
-14%	Cc1c(Cl)cccc1NC(=O)CCC(=O)NNC(=O)c1ccccc1
-16%	Cc1cccc(N2C(=O)CS/C2=N\NC(=O)c2ccc(Br)cc2)c1C
9%	CCN1C(=O)/C(=C/c2cccs2)SC1=Nc1ccc(OC)cc1
-12%	CC(C)c1nc2ccccn2c1NC1CCCCC1
7%	CN(C)S(=O)(=O)Nc1cc(Cl)cc(Cl)c1
0%	CCN(CC)S(=O)(=O)c1ccc(N2CCCC2)c(NC(=O)c2ccc(OC)cc2OC)c1
12%	Cc1ccc(OCC(=O)Nc2ccccc2C(=O)OCc2cc(=O)n3ccsc3n2)cc1C
4%	O=C1/C(=C\c2ccco2)SC(=S)N1c1ccccc1
-1%	COc1ccc(C2=NOC(C(=O)Nc3ccc4c(c3)OCCO4)C2)c(OC)c1 (centres undefined)
-12%	CC1(C)Cc2nc3sc4c(NCCO)ncnc4c3cc2CS1
-21%	Cc1ccc(N2C(=O)c3ccccc3C2=O)nc1
-19%	O=C(CSc1nc(O)cc(=O)n1-c1ccccc1)NCc1ccccc1
-9%	O=C(C1=NN[C@@H]2C(=O)N(Cc3ccccc3)C(=O)[C@H]12)c1ccc([N+](=O)[O-])cc1
-22%	CCOc1ccc(-n2c(SCc3ccc([N+](=O)[O-])cc3)nnc2-c2ccc(OC)cc2)cc1
-5%	CCNc1c(NC(=O)COc2ccc(Cl)cc2)c(=O)oc2ccccc12
-10%	Cn1c(SCC2CCCCC2)nnc1-c1ccncc1
?	Nc1cc2nsnc2cc1Br
-5%	CC1(C)Cc2c(sc(NC(=O)COc3ccc(Cl)cc3Cl)c2C(N)=O)C(C)(C)N1
-7%	COc1ccc(CSc2nnnn2Cc2ccccc2)cc1OC
-3%	CCc1ccccc1NC(=O)Cn1c(=O)n(C(C)C)c(=O)c2oc3ccccc3c21
-4%	CSc1nc(O)c(Nc2cccc(Cl)c2)c(=O)[nH]1

(listing goes on)
VDR inh	Molecule
15%	CS(=O)(=O)N1CCN(c2ccccc2NC(=O)Cc2ccc(Cl)cc2)CC1
25%	CC(C)c1ccccc1OCC(O)CN1CCN(S(=O)(=O)c2ccc([N+](=O)[O-])cc2)CC1 (centres undefined)
12%	Cn1c(=O)c2c(ncn2CC(=O)Nc2nc(-c3ccccc3Cl)cs2)n(C)c1=O
1%	O=C(CCCc1c[nH]c2ccccc12)N1CCCCCC1
-12%	CCOC(=O)CNC(=O)C12CC3CC(CC(C3)C1)C2
-5%	COc1cccc(C(=O)C2=NN(C(C)=O)CC2c2ccco2)c1 (centres undefined)
3%	COc1cccc(C2CC(C(F)(F)F)n3nc(C(=O)Nc4c(C)n(C)n(-c5ccccc5)c4=O)cc3N2)c1 (centres undefined)
-2%	COc1ccc(NC(=O)Cn2c(=O)n(CC3CCCO3)c(=O)c3ccccc32)cc1 (centres undefined)
-22%	Cc1ccnc(SCc2cc(=O)c(OC(=O)c3ccccc3)co2)n1
-2%	CC(=O)N(C)c1ccc(NCc2cc(=O)oc3cc(C)c(O)cc23)cc1
-16%	Cc1ccc(CNC(=O)COC(=O)c2ccc(Cl)c(N)c2)cc1
-8%	COc1cc(NC(=O)CN2CCN(C(=O)C3CCCO3)CC2)c(OC)cc1Cl (centres undefined)
12%	CN1CCN(C(=O)c2ccc3c(c2)N(C)C(=O)/C(=C/c2cccc(Cl)c2)S3)CC1
9%	c1cc2c(cc1Oc1nc(N3CCOCC3)nc(N3CCOCC3)n1)OCO2
5%	COc1ccc(CCNc2nc(SCc3ccc(F)cc3)nc3ccccc23)cc1OC
2%	Cc1nc2ccccc2n1C(=O)N1CCOCC1
3%	NC(=O)c1ccc[n+](CC(=O)c2ccc(Br)cc2)c1
-2%	CCOC(=O)COc1cc(O)c2c(=O)cc(-c3ccccc3)oc2c1
-6%	CC(C)N(C(=O)c1nn(C)c2c1CSc1ccccc1-2)C1CCCCC1
-12%	COc1ccc(S(=O)(=O)NC(C)C(=O)NCc2cccnc2)cc1C (centres undefined)
-6%	Cc1onc(-c2ccccc2)c1C(=O)Nc1c(C)n(C)n(-c2ccccc2)c1=O
11%	CC(=NC1CCCCC1)C1=C(O)c2ccccc2C1=O
1%	C[C@]1(C(=O)O)C=C[C@@H](Cc2ccccc2)N1C(=O)c1ccccc1
-9%	CCN(CC(=O)Nc1ccc(NC(C)=O)cc1)C(=O)/C=C/c1c(C)nn(-c2ccc(F)cc2)c1Cl
0%	Cc1cccc(NC(=O)c2c(C)cc(C)nc2SCC(=O)Nc2c(C)cc(C)cc2C)c1

(more compounds)
VDR inh	Molecule
-8%	O=C(CSc1nc2cc(C(=O)NC3CCCC3)ccc2c(=O)n1CC1CCCO1)c1ccc(F)cc1 (centres undefined)
-10%	CN1C(=O)CC2(CC(=O)N(Cc3ccccc3)C2)C1=O (centres undefined)
-28%	COc1ccc2nc3oc(C(=O)N(C)c4ccc(Cl)cc4)cc3cc2c1
-7%	CC(OC(=O)CCOc1ccccc1)C(=O)NC1CC1 (centres undefined)
-11%	Cc1nnc(N2CCN(Cc3ccccc3)CC2)[nH]c1=O
-1%	OC(c1cc(-c2cccc(Cl)c2)nc2ccccc12)C1CCCCN1 (centres undefined)
-5%	CC(O)Cn1c(N2CCCC2)nc2c1c(=O)[nH]c(=O)n2C (centres undefined)
-12%	CCn1ncc(Br)c1C(=O)Nc1ccccc1OC
-19%	Cc1cccc(NC(=O)c2ccc(COc3ccc(Cl)cc3Cl)o2)n1
-13%	Cc1cccc(N2CCN(C(=O)c3cc(S(=O)(=O)N(C)C)ccc3N3CCCC3)CC2)c1C
-2%	Cc1ccc(NC(=O)N2CCC(NC(=O)c3ccccc3C)CC2)cc1
-5%	Cc1ccc(C(=O)N2CCN(S(=O)(=O)c3ccccc3)CC2)cc1
?	CC(=O)OC1CC[C@]2(C)C(CC(OC(C)=O)[C@]3(C)C2CC[C@@]2(C)C(c4ccoc4)OC(=O)C4O[C@]432)C1(C)C (some centres undefined)
-6%	CC(C)(C)N1CC(C(=O)Nc2ccc(C#N)cc2)CC1=O (centres undefined)
-6%	CC(C)(C)NC(=O)[C@H]1CN(Cc2cccnc2)CCN1C[C@@H](O)C[C@@H](Cc1ccccc1)C(=O)N[C@H]1c2ccccc2C[C@H]1O
-6%	Cc1ccn(-c2cccc(-n3ccc(C)n3)n2)n1
-16%	N#C/C(=C\c1ccc(O)cc1)C(=O)NCc1ccccc1
15%	CCCOc1ccc(C2=CSC3=NCCN23)cc1
-6%	CCOC(=O)C1=C(C)NC(C)=C(C(=O)OCC)C1C(=O)OCC(=O)NC1CCCCC1
5%	O=C(c1ccc2c(c1)CCCC2)N1CCN(c2nc3ccc(F)cc3s2)CC1
9%	Cc1ccc(NC(=O)/C=C/c2ccco2)cc1S(=O)(=O)N1CCCCCC1
-3%	O=C(CSc1nnc2n1CCCCC2)Nc1ccc(N2CCOCC2)cc1
3%	Cc1nc(-c2ccc(S(=O)(=O)NCc3ccc(N(C)C)cc3)cc2)co1
-13%	Cc1cc(C)c(NC(=O)CSc2nc(=O)n3cc(C)ccc3n2)c(C)c1
-1%	Cc1nnsc1C(=O)N/N=C/c1ccccc1Cl

Laid out differently: entries from further up.
SMILES: Cc1ccn(-c2cccc(-n3ccc(C)n3)n2)n1
- VDR inh: -6%

SMILES: Cc1cccc(NC(=O)c2ccc(COc3ccc(Cl)cc3Cl)o2)n1
- VDR inh: -19%

SMILES: Cc1ccc(NC(=O)/C=C/c2ccco2)cc1S(=O)(=O)N1CCCCCC1
- VDR inh: 9%

SMILES: CCn1ncc(Br)c1C(=O)Nc1ccccc1OC
- VDR inh: -12%

Following part
VDR inh	Molecule
2%	COc1ccc(Cn2ccnc2SCC(=O)Nc2nc3ccccc3s2)cc1
-10%	O=C1SCCc2c1n(Cc1ccccc1)c1ccccc21
0%	C=CCn1c(O)c(C=Nc2ccc(Cc3ccncc3)cc2)c(=O)[nH]c1=S
-3%	CN(C)C(=O)c1cc(Br)ccc1Cl
-3%	COc1ccc(CN(CC(=O)NCc2ccccc2)C(=O)CCC(=O)Nc2cc(C)ccn2)cc1
5%	CC(C)n1cc(CNC(=O)C2CCC(=O)N(Cc3ccccc3F)C2)cn1 (centres undefined)
1%	NC(=O)C1CCN(c2ncc(C(F)(F)F)cc2Cl)CC1
3%	O=C(Nc1ccc(Br)cc1)c1ccc(Cl)c(S(=O)(=O)N2CCCCCC2)c1
10%	CC(Sc1ncnc2sccc12)C(=O)Nc1ccc(S(N)(=O)=O)cc1 (centres undefined)
-10%	CCCC(=O)OCC(=O)Nc1cc(Cl)ccc1[N+](=O)[O-]
-9%	COc1ccc(C(=O)NC2CC2)cc1OC1CCN(Cc2ccc(Cl)cc2)CC1
23%	O=C(CSc1nnc(-c2cccnc2)o1)Nc1ccc(Br)cc1
17%&-8%	COc1ccc(NC(=O)CN2C(=O)c3ccccc3Sc3ccc(C(=O)N4CCOCC4)cc32)c(OC)c1
-11%	O=C(NC1CCN(C(=O)Nc2ccc(F)cc2)CC1)c1ccc(F)cc1
14%	COc1ccc(C)cc1NC(=O)n1ncc2c(C)cccc21
0%	O=C(NNC(=S)NC1CCCCC1)c1ccc(Cl)s1
-13%	O=C1C2C(C(=O)N1/N=C/c1cc([N+](=O)[O-])c(O)cc1O)C1C=CC2C12CC2 (centres undefined)
7%	CCCNC(=O)Cn1cnc2sc(C(=O)N3CCN(c4ccc(F)cc4)CC3)c(C)c2c1=O
-14%	COc1ccc2nc(SCC(=O)N(C)C3CCCCC3)[nH]c2c1
-1%	Cc1n[nH]c(=S)n(NC(=O)CC(=O)Nn2c(=S)[nH]nc(C)c2=O)c1=O
8%	Cc1ccc(C)c(N2CCN(C(=O)c3cc4c(=O)oc5ccccc5c4s3)CC2)c1
0%	O=C(OCCCN=C1NS(=O)(=O)c2ccccc21)c1ccc([N+](=O)[O-])cc1
2%	CCc1nnc2n1N=C(c1ccc(OC)cc1)CS2
-13%	COc1cccc(/C=N/NC(=O)NC23CC4CC(CC(C4)C2)C3)c1O
46%[activator]	O=C(NC1CCCC1)c1cc(-c2ccccc2O)on1

Continuation.
VDR inh	Molecule
-13%	CCCOc1ccc(/C=c2\sc3nc(-c4ccco4)nn3c2=O)cc1OCC
0%	COc1cc2ccccc2cc1C(=O)NC1CCCC1
?	Cc1ccc(-n2c(O)c(C=Nc3cc(C)on3)c3ccccc3c2=O)c(C)c1
-21%	CC(=O)c1ccc(S(=O)(=O)NCC(=O)Nc2nc3ccccc3[nH]2)cc1
-12%	Cc1ccccc1OCC(=O)Nc1ccc(C(=O)Nc2ccccc2C(=O)O)cc1
-1%	CCCCn1c(=O)c2oc3ccccc3c2n(Cc2ccccc2C)c1=O
-19%	CCn1c(SCC(N)=O)nnc1-c1cc2c(C)nn(-c3ccccc3)c2s1
11%	CCCC(=O)n1nc(-c2ccc(OC)cc2)nc1N
-13%	O=C(O)C(c1ccccc1)c1ccccc1
-13%	CCC(C)NC(=O)CCS(=O)(=O)c1ccc(Br)s1 (centres undefined)
?	CCC1=NN2C(=N)/C(=C/c3c(C)nn(-c4ccccc4)c3Cl)C(=O)N=C2S1
11%	Cc1cccc(C)c1NC(=O)C(Cl)=C(Cl)Cl
-12%	COC(=O)CNC(=O)c1c(-c2ccccc2Cl)noc1C
0%	Cc1ccc(OCc2ccc(-c3ccccc3)cc2)c([N+](=O)[O-])n1
-4%	CS(=O)(=O)c1cccc(C(=O)OCC(=O)c2ccc3c(c2)OCCO3)c1
0%	CCOc1ccc(/C=N/OCC(=O)NCc2ccc3c(c2)OCO3)cc1OC
25%	O=C(Nc1ccc(CN2CCOCC2)cc1)c1cccc(-c2cc3ccccc3oc2=O)c1
-2%	COc1ccc(CCn2c(=N)c(C(=O)NCC3CCCO3)cc3c(=O)n4ccccc4nc32)cc1OC (centres undefined)
71%[activator]	O=c1c(-c2ccc(Cl)cc2)nc2cnc(N3CCNCC3)nc2n1Cc1cccs1
-4%	Cc1cc(C)nc(SCNC(=O)c2ccc(F)cc2)n1
-5%	COc1cccc(CNC(=O)c2ccc(C)c(NC3=NC4CS(=O)(=O)CC4S3)c2)c1 (centres undefined)
-15%	Cc1[nH]n(C)c(=O)c1C(=O)c1c(-c2ccccc2Cl)noc1C
-3%	COc1nc(-c2ccncc2)nc2ccccc12
0%	COc1cc(-c2c(-c3ccc4c(c3)OCO4)noc2-c2ccsc2)ccc1F
9%	COc1ccc2cc(C#N)c(SCC(=O)NNC(=O)Cc3ccccc3)nc2c1

Continued, starting with the last 5 of the part before.
VDR inh	Molecule
-5%	COc1cccc(CNC(=O)c2ccc(C)c(NC3=NC4CS(=O)(=O)CC4S3)c2)c1 (centres undefined)
-15%	Cc1[nH]n(C)c(=O)c1C(=O)c1c(-c2ccccc2Cl)noc1C
-3%	COc1nc(-c2ccncc2)nc2ccccc12
0%	COc1cc(-c2c(-c3ccc4c(c3)OCO4)noc2-c2ccsc2)ccc1F
9%	COc1ccc2cc(C#N)c(SCC(=O)NNC(=O)Cc3ccccc3)nc2c1
-1%	CCOc1cc(/C=C2\N=C(SCC)SC2=O)cc([N+](=O)[O-])c1OC(C)=O
?	CN1CCN(CC(=O)C23CC4CC(CC(C4)C2)C3)CC1
-12%	CN(CC(=O)Nc1ccc(N2CCOCC2)cc1)C(=O)C12CC3CC(CC(C3)C1)C2
-11%	C(=N\N=C\c1cccnc1)/c1cccnc1
-3%	CCOC(=O)C1=C(COC(=O)c2ccc([N+](=O)[O-])s2)NC(=O)NC1C (centres undefined)
